A1 inh = inhibitors of the anti-apoptotic protein A1, read as caspase activation; MEF A1-2A-BIM cells, Caspase-Glo 3/7 luminescence, 3 h; percent of clofoctol response, vehicle zero; caspase activation, % (no concentration beside the values); 0.066% of 330,000 active;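 active means over half of replicate activation scores above 10%, or exactly half above 10 with the replicate mean above 10; inconclusive means replicate mean below 10 yet half the replicates above 10; inactive means over half of replicates below 10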;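 further: wells of about 30 µL received 50 nL stock; many hits fall short of the cut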
E coli growth = blocks Escherichia coli growth; OD600, 23 h; active compounds read low; OD600 absorbance (no concentration beside the values); 0.21% of 330,000 active;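 active means OD600 absorbance below the run mean of sample wells minus 3.6 SD, in any replicate, cut at about 0.56 in these data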;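 further: stock transfer was 300 nL into about 60 µL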
HNF4A DNA FP = change in binding of human HNF4 alpha to DNA; P41235; HNF4a-FITC DNA binding, fluorescence polarization, 1 h; activity change, % at 10 µM; 0.3% of 360,000 active; AID 1224865; in the data active means activity change above about 30%, passing the limit was not always enough;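 further: controls were the assay level and a saturating level of protein; the project sought stronger binding though the title names inhibitors; some compounds called inactive have numbers as strong as hits; positive values seem to mean higher polarization but the record does not say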
LANA-H2A inh = blocks KSHV LANA binding to histone H2A/H2B; Q9QR71; cell-free LANA-H2A/H2B peptide, fluorescence polarization; inhibition, % (test concentration not listed); 0.6% of 320,000 active; AID 2629; in the data active means inhibition mostly above about 10%, no sharp cut-off; inactive means mostly below about 6.7%;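 further: stock transfer was 7.5 nL into about 10 µL; 0% = median of vehicle wells and 100% = median of positive control wells; one replicate is shown; the record names a cut of 25% in any replicate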
Beta2AR agonist = agonists of human beta-2 adrenergic receptor inducing internalization; P07550; Am2.2-beta2AR cells, FAP receptor internalization, flow cytometry; reference of the scale not given here; response, % (no concentration beside the values); 0.43% of 340,000 active; AID 504454;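 active means response above a set limit, near 3 SD of response in nonfluorescent compounds, cut at about 42% in these data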;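 further: stock transfer was 100 nL into about 11 µL; a reference agonist was the positive control; negative values mostly stem from fluorescent compounds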
Target sequence (P07550 whole entry, looked up): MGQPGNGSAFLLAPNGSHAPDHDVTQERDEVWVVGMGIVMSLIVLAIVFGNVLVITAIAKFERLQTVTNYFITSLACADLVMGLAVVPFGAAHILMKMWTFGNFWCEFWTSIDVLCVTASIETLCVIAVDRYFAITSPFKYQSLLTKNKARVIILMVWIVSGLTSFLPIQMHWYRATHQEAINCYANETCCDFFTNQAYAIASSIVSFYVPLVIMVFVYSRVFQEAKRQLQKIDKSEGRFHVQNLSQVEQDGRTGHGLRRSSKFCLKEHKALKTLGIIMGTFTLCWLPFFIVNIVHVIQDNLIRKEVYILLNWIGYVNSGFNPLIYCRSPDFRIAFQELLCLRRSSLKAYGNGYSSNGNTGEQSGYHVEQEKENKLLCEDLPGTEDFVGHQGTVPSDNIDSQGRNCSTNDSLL
Vif TR-FRET = inhibitors of Vif binding to APOBEC3G peptide, primary screen, biochemical, TR-FRET, GST-Vif 1-94, biotin-A3G peptide, dose response retest (AID 1117319). TR-FRET GST-Vif / biotin-A3G peptide binding; higher % means a stronger effect; test concentration not given here; strong numbers were not always called active. inhibition, %, or IC50 in µM where a hit was titrated. 0.57% of 260,000 active;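 active means above the screen mean plus three standard deviations and confirmed in dose response; inconclusive means results disagree or hit not tested in dose response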;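 further: Vif residues 1-94 fused to GST binding biotinylated APOBEC3G peptide 110-148; 0% = full assay without inhibitor and 100% = GST in place of GST-Vif; retest series ran down from 100 µM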
UCH37 inh = blocks the human deubiquitinase UCH37; purified proteasome/UCH37, Ub-AMC cleavage fluorescence; 0.33% of 330,000 active; Q9Y5K5; inhibition, % (no concentration beside the values);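 active means mean of two replicates above 20%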;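 further: 0% = compound-free wells with enzyme and 100% = wells lacking proteasome; stock transfer was 100 nL into about 20 µL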
Target sequence (Q9Y5K5 whole entry, looked up): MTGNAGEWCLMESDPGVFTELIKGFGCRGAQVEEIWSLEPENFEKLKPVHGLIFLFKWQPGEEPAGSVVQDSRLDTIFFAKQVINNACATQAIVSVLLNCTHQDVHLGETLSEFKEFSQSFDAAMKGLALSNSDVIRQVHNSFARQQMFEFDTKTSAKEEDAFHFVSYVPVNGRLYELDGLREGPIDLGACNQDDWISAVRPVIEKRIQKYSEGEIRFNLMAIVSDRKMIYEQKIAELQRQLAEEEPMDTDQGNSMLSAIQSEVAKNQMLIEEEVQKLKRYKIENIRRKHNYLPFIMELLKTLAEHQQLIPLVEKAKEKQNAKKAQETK
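Material: Human UCH37 enzyme supplied as purified proteasome complex | Schedule: 30 min preincubation with enzyme, 25 min cleavage at room temperature | Detection: AMC fluorescence 355/460 nm | Measure: % inhibition of Ub-AMC cleavage fluorescence | Controls: Wells without proteasome as full block, compound-free enzyme plus substrate as uninhibited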
Starred values were filed as active, the others as inactive; i = inactive; ? = inconclusive; . = not tested or not shown; & = joins results of further samples.

Structure,UCH37 inh,A1 inh,E coli growth,LANA-H2A inh,Vif TR-FRET,Beta2AR agonist,HNF4A DNA FP
Cc1cccc(OCC(=O)NCC(=O)N=Nc2c(O)[nH]c3ccc([N+](=O)[O-])cc23)c1,8.2,-0.7,0.66,0.1,.,4,-1.7
COc1ccc(NS(=O)(=O)c2ccc(O)c(NS(=O)(=O)c3ccc(NC(C)=O)cc3)c2)cc1,-0.9,0.5,0.71,2.7,.,-4,1.3
CC1=CC(c2ccc(Cl)cc2)n2nc(NC(=O)c3ccccc3)nc2N1 (stereo unspecified),-5.7,1.2,0.71,3.0,-1%,-11,1.1
CN(C)c1ccc(C=C2C(=O)OC3(CCCC3)OC2=O)cc1,6.4,2.1,0.67,-0.6,.,9,-1.2
O=c1ccc2cc3c([nH]c4ccc(Br)cc43)oc-2c1O,15,0.4,0.7,-0.5,?,-198,87
CCOC(=O)C1CCN(C(=O)CN(c2cc(OC)ccc2OC)S(=O)(=O)c2ccccc2)CC1,-2.7,0.4,0.67,3.5,24%&6%,-1,0.6
CCN(C(=O)COC(=O)c1ccccc1O)c1cccc2ccccc12,-0.6,0.0,0.72,4.9,-5%,-10,2.1
Cc1ccc(-c2[nH]nc(N)c2N=Nc2cccc(Cl)c2C)cc1,9.9,.,0.72,.,-3%,2,1.6
CCCCCOC(=O)CSc1nnc(-c2cc(OC)c(OC)c(OC)c2)o1,0.6,0.9,0.64,-3.3,1%&-5%,5,1.6
CCN1CCCC1CNC(=O)C(=O)Nc1ccccc1 (stereo unspecified),0.9,0.4,0.71,1.6,?,3,2.1
CN(c1ccccc1)c1ccc(/C=C(/CCC(=O)O)c2nc3ccccc3s2)cc1[N+](=O)[O-],13,.,0.67,.,-3%,4,-12
O=C(NCc1ccco1)C(=O)NCC1OCCN1S(=O)(=O)c1ccc(Cl)cc1 (stereo unspecified),1.2,0.5,0.68,6.3,4%,-8,-5.2
CC1CCN(c2ccc3c(c2)S(=O)(=O)c2ccccc2C3=O)CC1,-2.5,-0.6,0.71,1.6,.,5,58*
CC(=O)Oc1ccccc1N(C(C)=O)S(=O)(=O)c1ccc(C)cc1,0.9,-0.1,0.68,-3.0,.,-35,0.9
CCN1C(=O)c2ccccc2S(=O)c2ccc(C(=O)NC3CC3)cc21 (stereo unspecified),2.1,-0.4,0.77,-3.4,10%,-7,-0.6

Some of these compounds in order of the HNF4A DNA FP value, ascending.
Molecule | UCH37 inh | E coli growth | LANA-H2A inh | Vif TR-FRET | Beta2AR agonist | HNF4A DNA FP
O=C(NCc1ccco1)C(=O)NCC1OCCN1S(=O)(=O)c1ccc(Cl)cc1 (stereo unspecified) | 1.2 | 0.68 | 6.3 | 4% | -8 | -5.2
CCN1C(=O)c2ccccc2S(=O)c2ccc(C(=O)NC3CC3)cc21 (stereo unspecified) | 2.1 | 0.77 | -3.4 | 10% | -7 | -0.6
CCOC(=O)C1CCN(C(=O)CN(c2cc(OC)ccc2OC)S(=O)(=O)c2ccccc2)CC1 | -2.7 | 0.67 | 3.5 | 24%&6% | -1 | 0.6
CC1CCN(c2ccc3c(c2)S(=O)(=O)c2ccccc2C3=O)CC1 | -2.5 | 0.71 | 1.6 | . | 5 | 58*

Additional records
Structure,UCH37 inh,A1 inh,E coli growth,LANA-H2A inh,Vif TR-FRET,Beta2AR agonist,HNF4A DNA FP
C#CCN(C)CCCOc1ccc(Cl)cc1Cl,5.4,0.0,0.61,-14&3.0,?,-7,1.1
COC(=O)[C@]1(C)N[C@H](CN(C)C(=O)c2ccc(C)cc2)[C@@H]2C(=O)N(C)C(=O)[C@@H]21,1.2,.,0.65,.,.,5,4.0
COc1cccc(C(=O)Cn2c(NCCO)nc3ccccc32)c1,1.2,2.7,0.73,-0.9,-5%,-4,-0.3
Cc1ccc(NC(=O)CN(C)C(=O)Cn2cc(C(F)(F)F)cc(Cl)c2=O)cc1,0.6,0.1,0.65,-2.6,1%,-1,-0.5
COc1ccccc1N1CCN(C2CCN(C(=O)COc3ccccc3)CC2)CC1,5.2,0.2,0.69,-1.1,31%,-1,-0.4
O=C(c1cccnc1)N1CCN(C/C=C/c2ccccc2)CC1,2.9,1.0,0.71,-1.5,0%,1,-3.2
COc1cc(/C=N/Nc2nncc3ccccc23)cc(OC)c1OC,.,-9.8,.,-1.2,-2%,-9,1.9
CCC(C)SCC(=O)Nc1ccc(S(=O)(=O)N2CCOCC2)cc1OC (stereo unspecified),3.1,1.0,0.63,0.6,-9%,1,-0.6
CCc1noc(C)c1C(=O)NCCc1ccccc1,-0.6,-0.6,0.63,-0.5,-10%,-1,2.4
CC[C@]12c3[nH]c4cc(CCC(=O)N(C)C)ccc4c3CCN1C(=O)[C@@H](CC(=O)NCCCN(C)C)C[C@@H]2C(=O)N1CCN(C(=O)C2CC2)CC1,-0.5,.,0.71,.,-10%,-4,-0.6
CN1C(=O)CS(=O)c2ccc(C(=O)NC3CC3)cc21 (stereo unspecified),-1.6,-0.1,0.65,-2.5,-13%,2,4.0
COc1ccc2sc(-c3ccc(N(C)C)cc3)c(C#CC(C)(C)O)c2c1,-236,-1.4,0.7,3.0,.,19,0.5
Cc1ccc(N(Cc2ccccc2F)S(C)(=O)=O)cc1C,0.7,0.7,0.68,-2.2,?,7,1.6
CCOC(=O)N1CC=C2C(C#N)=C(N)C(C#N)(C#N)[C@H](c3ccsc3)[C@H]2C1,-11,0.6,0.74,4.1,9%,-1,3.9
CN(C)c1ccc(S(=O)(=O)NCC(=O)NCCC2=CCCCC2)cc1[N+](=O)[O-],2.7,0.8,0.66,4.2,0%,-8,-5.9
CN1CCN(CC(=O)c2ccccc2F)CC1,3.4,0.2,0.7,-0.7,2%,-5,-2.8
CC1NC2(C(=O)N(Cc3ccccc3)c3ccccc32)C2C(=O)N(c3ccccc3)C(=O)C12 (stereo unspecified),5.6,.,0.73,.,-1%,-16,1.1
CN(C)CCNS(=O)(=O)c1ccc2c3c(cccc13)C(=O)N2,i,0.9,0.68,-9.6,0%,-3,-0.9
CC(C)CNC(=O)C1CCCN(S(=O)(=O)c2ccc(-n3cnnn3)cc2)C1 (stereo unspecified),4.7,1.0,0.75,0.5,-2%,-1,5.0
N#Cc1c(-c2ccccc2Cl)noc1/C=C/Nc1ccc(C(=O)O)cc1,-7.3,-6.7,0.68,3.4,?,3,-1.1
CCc1nnc(SCC(=O)N2CCCC(N3CCN(c4ccccc4C)CC3)C2)o1 (stereo unspecified),-1.1,0.2,0.75,-0.7,-2%,0,-8.1
O=C(Nc1c2c(nn1-c1ccccc1)CS(=O)C2)c1ccc2c(c1)OCO2 (stereo unspecified),0.4,-0.5,0.73,0.7,.,3,3.2
Cc1ccc(NS(=O)(=O)c2ccc(-c3ccc(=O)[nH]n3)o2)c(C)c1,-0.3,1.8,0.67,4.0,.,7,-0.9
O=C(Nc1cn(-c2ccccc2)nc1-c1cccs1)c1ccco1,-0.1,-0.2,0.75,3.0,0%,-2,0.6
CCOC(=O)CC(NC(=O)c1cc2cc(Cl)cc(Cl)c2oc1=O)c1cccc([N+](=O)[O-])c1 (stereo unspecified),-19,0.4,0.73,.,6%,-3,0.3
CC(=O)N1CCOc2ccc(S(=O)(=O)N3CCCCC3)cc21,-1.3,-0.1,0.68,6.6,.,6,-0.3
COc1ccc(-c2nc3ccncc3[nH]2)cc1OC,-15,0.0,0.72,4.9,-2%,10,-0.5
O=C(Nc1ccc(S(=O)(=O)N2CCCC2)cc1)c1ccc(CN2CCc3ccccc3C2)cc1,3.6,-0.3,0.63,2.3,.,3,1.2
O=C(COc1ccccc1F)N1c2ccccc2CCc2ccccc21,0.0,0.4,0.66,-29,.,63*,-1.5
OCCN(CC(O)COc1ccccc1)CC(O)Cn1ccc2ccccc21 (stereo unspecified),3.6,-0.7,0.68,-2.5,.,-2,-0.4
O=C(Nc1ccccc1)N1CCC(C(=O)N2CCN(S(=O)(=O)c3cccc(F)c3)CC2)CC1,4.2,-0.5,0.7,2.4,1%,4,0.6
COc1ccc(Nc2cc(C)nc(N3CCN(C(=O)c4ccc5c(c4)OCO5)CC3)n2)cc1,1.4,0.4,0.65,2.7,-9%,-3,-6.0
O=S1(=O)NC(=NCCc2ccccn2)c2ccccc21,1.0,-1.6,0.71,-0.3,24%,4,-2.1
CC1CCN(S(=O)(=O)c2nnc(NC(=O)c3cccc([N+](=O)[O-])c3)s2)CC1,.,-0.9,.,-4.1,.,16,-6.0
Cc1ccc(C(=O)COC(=O)c2cnccn2)cc1,0.0,-0.1,0.7,4.0,14%,7,-1.7
CCOC(=O)C1(CCOc2ccccc2)CCN(Cc2ccc3c(c2)OCCO3)CC1,1.5,-0.2,0.69,-0.4,4%,-2,-0.1
NC(=O)c1ccccc1OCC(=O)c1ccc(Cl)cc1,3.7,-0.1,0.69,0.5,27%,3,-0.5
O=C1Nc2ccccc2C1(O)c1ccccc1 (stereo unspecified),1.4,?,0.71,-0.2,1%,-4,3.1
COc1ccc(CCNCC(=O)Nc2ccc(OC(F)(F)F)cc2)cc1OC,1.9,0.3,0.61,-2.2,1%,12,-1.1
CCOC(=O)CSc1nc2ccccc2n1CC(=O)N1CCN(c2ccccc2)CC1,6.0,0.1,0.69,7.6,17%,21,5.2
Cc1ccc(NC(=S)N2CCCCC2)cc1C,3.6,0.1,0.71,2.6,2%,-1,2.7
NS(=O)(=O)c1ccc(CNC(=O)/C=C/c2ccco2)cc1,.,0.9,.,0.9,.,-1,-12
Cc1ccc(C(=O)NC(=S)Nc2ccc(N3CCOCC3)cc2)cc1C,1.8,0.4,0.73,-62,12%,-4,5.0
O=C(NN1C(=O)c2ccccc2NC1c1ccco1)c1ccc([N+](=O)[O-])cc1 (stereo unspecified),3.6,-0.1,0.71,-5.3,6%,8,1.4
O=C(CSCc1cccc(Cl)c1)N1CCN(Cc2ccc3c(c2)OCO3)CC1,1.0,0.0,0.7,-5.1,0%,6,-1.3
COc1ccc(C(CNC(=O)Cc2ccc(-c3ccccc3)cc2)N(C)C)cc1 (stereo unspecified),-2.4,0.5,0.66,0.9,.,0,4.4
CC(C)Cn1c(SCC(=O)NCc2ccco2)nnc1-c1ccncc1,1.3,0.7,0.65,2.0,13%,0,-3.1
COc1ccc(/C=C(\NC(=O)c2cccs2)C(=O)Nc2ccccc2C)cc1OC,5.8,-0.6,0.7,-6.4,.,-10,0.0
CCc1ccccc1NC(=O)CNC(=O)CCNC(=O)Nc1ccccc1,-0.9,-0.9,0.63,-3.1,1%,2,0.3
CN(C(=O)CSc1ncnc2sc3c(c12)CCC3)C1CCS(=O)(=O)C1 (stereo unspecified),1.0,-0.7,0.68,5.3,.,0,2.5
O=C(c1ccc(S(=O)(=O)N2CCOCC2)cc1)N1CCOCC1,-1.2,0.0,0.71,0.8,.,0,1.9
CC(C)n1nnnc1SCC(=O)c1ccc2c(c1)OCCO2,4.7,1.0,0.65,3.6,0%,-6,-3.7
O=C1CC(c2ccco2)Sc2ccccc2N1 (stereo unspecified),2.9,0.6,0.69,-9.8,1%,-1,1.6
Cc1cccc(C)c1NC(=O)C(NC=O)c1ccc(N(C)C)cc1 (stereo unspecified),5.5,-0.3,0.68,6.6,-3%,-2,3.5
CCCCCOc1ccc(NC(=O)c2cc(SC)ccc2Cl)cc1,-2.9,0.0,0.69,-0.1,0%,-1,0.5

Screening results: PubChem, several laboratories
